Screening results deposited in PubChem BioAssay by Broad Institute.
NOMO-1 viab: NOMO-1 AML cell viability reduction, primary screen, STK33 inhibitor project, CellTiter-Glo luminescence; inhibition, % (test concentration not listed); NOMO-1 AML viability, 72 h; 37,000 compounds, 7.5% hits;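 active means most replicates above 80%; inconclusive means exactly half above 80%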;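 further: wells of about 30 µL received 25 nL stock; 0% = median of vehicle wells and 100% = reference inhibitor level; the first replicate is given; inactives centre near 10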
Starred values were filed as active, the others as inactive; u = inconclusive.

SMILES	NOMO-1 viab
COc1ccc(S(=O)(=O)Nc2ccc3c(c2)C(=O)N([C@H](C)CO)C[C@H](C)[C@@H](CN(C)Cc2ccncc2)O3)cc1	18.1
COc1ccc(S(=O)(=O)Nc2ccc3c(c2)C(=O)N([C@H](C)CO)C[C@@H](C)[C@H](CN(C)Cc2ccc(C(=O)Nc4ccccc4N)cc2)O3)cc1	-1.2
Cc1ccc(S(=O)(=O)Nc2ccc3c(c2)CC(=O)N([C@H](C)CO)C[C@@H](C)[C@H](CN(C)C(=O)Nc2cccc4ccccc24)O3)cc1	-0.5
COc1ccc(/C=C/C(=O)Nc2ccc(N3CCOCC3)c(Cl)c2)cc1	u
COC(=O)c1c(NC(=O)CSc2ncnc3sc(C)c(C)c23)sc(C)c1C	-11.8
C[C@@H]1CCCCO[C@@H](CN(C)C(=O)Nc2ccc3c(c2)OCO3)[C@@H](C)CN([C@H](C)CO)C(=O)c2cc(NC(=O)c3ccncc3)ccc2O1	-10.0
C[C@@H]1CN([C@@H](C)CO)C(=O)c2cc(NC(=O)Cc3cn(C)c4ccccc34)ccc2O[C@H]1CN(C)Cc1ccc(C(=O)O)cc1	14.7
Cc1ccc(S(=O)(=O)Nc2ccc3c(c2)CC(=O)N([C@H](C)CO)C[C@@H](C)[C@@H](CN(C)C(=O)Nc2ccccc2)O3)cc1	0.6
Cc1noc(C)c1S(=O)(=O)Nc1cccc2c1O[C@H](CN(C)Cc1ccc(C(=O)O)cc1)[C@H](C)CN([C@@H](C)CO)C2=O	5.1
COc1cc(OC)c(NC(=O)CN(C)S(=O)(=O)c2ccc(Br)cc2)cc1Cl	3.7
CC(C)NC(=O)N(C)C[C@@H]1Oc2ccc(NC(=O)CCN3CCOCC3)cc2CC(=O)N([C@H](C)CO)C[C@H]1C	31.9
CS(=O)(=O)N(CC(=O)Nc1cccc2ccccc12)c1ccc(F)c(Cl)c1	9.2
C[C@H]1CN([C@@H](C)CO)C(=O)c2cc(NC(=O)CCN3CCOCC3)ccc2O[C@H]1CN(C)C	1.9
C#CCOc1ccc(C(Nc2ccccn2)c2ccc3cccnc3c2O)cc1 (stereo unspecified)	112.8*
O=C(NS(=O)(=O)c1ccc(NC(=O)C2COc3ccccc3O2)cc1)c1ccccc1 (stereo unspecified)	-10.8
CC(C)c1ccc(NC(=O)CSc2nnc(-c3ccccc3Cl)n2C)cc1	44.9
C[C@@H]1CN([C@@H](C)CO)C(=O)c2cccc(NC(=O)c3ccncc3)c2O[C@H]1CN(C)CC1CCCCC1	34.7
Cc1noc(C)c1S(=O)(=O)N(C)C[C@@H]1Oc2ccc(N(C)C)cc2CC(=O)N([C@@H](C)CO)C[C@@H]1C	5.9
C[C@H]1CN([C@@H](C)CO)C(=O)c2cccc(NC(=O)Nc3ccc(C(F)(F)F)cc3)c2O[C@@H]1CN(C)Cc1ccc(Cl)c(Cl)c1	106.9*
Fc1ccc(N(Cc2nc3ccccc3[nH]2)Cc2nc3ccccc3[nH]2)cc1	99.7*
COc1ccc(NC(=O)CSc2nnc3n4ncnc4c4c5c(sc4n23)COC(C)(C)C5)cc1	19.8
C[C@@H]1CN([C@H](C)CO)C(=O)Cc2cc(NC(=O)Nc3ccc4c(c3)OCO4)ccc2O[C@H]1CN(C)Cc1ccc(Oc2ccccc2)cc1	116.7*
COc1ccc(S(=O)(=O)Nc2ccc3c(c2)C(=O)N([C@H](C)CO)C[C@H](C)[C@H](CN(C)Cc2ccccc2)O3)cc1	-1.1
CNC[C@@H]1Oc2ccc(NC(=O)Cc3ccccc3)cc2C(=O)N([C@@H](C)CO)C[C@@H]1C	-0.6
O=C1/C(=C\c2c[nH]c3ccccc23)C(c2ccccc2)Oc2ccccc21 (stereo unspecified)	120.8*
C[C@@H]1CN([C@H](C)CO)C(=O)c2cc(NS(=O)(=O)c3ccc(F)cc3)ccc2O[C@@H]1CN(C)S(=O)(=O)c1cn(C)cn1	-2.8
COc1cccc(OCC(=O)Nc2ccc(OC)c(NC(=O)c3ccco3)c2)c1	23.8
CNC[C@H]1Oc2ccc(NC(=O)Cc3cn(C)c4ccccc34)cc2CC(=O)N([C@@H](C)CO)C[C@@H]1C	24.9
COc1ccc(CN(C)C[C@H]2OCCCC[C@@H](C)Oc3ccc(NC(=O)NC(C)C)cc3C(=O)N([C@H](C)CO)C[C@@H]2C)cc1	6.2
CC(C)NC(=O)Nc1cccc2c1O[C@H](CN(C)Cc1ccc(Cl)c(Cl)c1)[C@@H](C)CN([C@H](C)CO)C2=O	24.2
C[C@H]1CN([C@@H](C)CO)C(=O)c2cc(NS(=O)(=O)c3ccc(F)cc3)ccc2O[C@H]1CN(C)C(=O)Nc1ccc(F)cc1	-4.8
COc1ccc(C(=O)Cn2c3ccccc3n3nc(-c4cccs4)nc23)cc1	23.9
COc1ccc(CN(C)C[C@@H]2Oc3ccc(NS(=O)(=O)c4ccc(OC)cc4)cc3CC(=O)N([C@@H](C)CO)C[C@@H]2C)cc1	27.6
Cc1cc(C(=O)Nc2cccc3c2O[C@@H](CN(C)Cc2ccc(Cl)c(Cl)c2)[C@@H](C)CN([C@H](C)CO)C3=O)n(C)n1	92.3*
CCOC(=O)c1cc(C#N)c(N2CCC(C(=O)OCC)CC2)nc1C(F)(F)F	11.1
C[C@H](CO)N1C[C@H](C)[C@H](CN(C)Cc2ccc(C(=O)O)cc2)Oc2ccc(NC(=O)Nc3ccc(C(F)(F)F)cc3)cc2CC1=O	17.9
N#Cc1nc(COc2cccc(Cl)c2)oc1NCc1ccncc1	17.1
Cc1cc(OCC(=O)Nc2ccc3oc(-c4ccncc4)nc3c2)cc(C)c1Cl	14.9
C[C@@H]1CN([C@H](C)CO)C(=O)Cc2cc(NC(=O)CCC(F)(F)F)ccc2O[C@H]1CN(C)Cc1ccc(Cl)c(Cl)c1	48.8
C[C@@H]1CN([C@@H](C)CO)C(=O)c2cc(NS(=O)(=O)c3ccc(F)cc3)ccc2O[C@H]1CN(C)Cc1ccccc1	5.8
C[C@H](CO)N1C[C@H](C)[C@H](CN(C)Cc2ccc(-c3ccccc3)cc2)Oc2ccc(NC(=O)Cn3cnnn3)cc2CC1=O	32.4
CSc1ccc(S(=O)(=O)NCc2ccccn2)cc1	13.4
N#C/C(=C\Nc1cccc(Cl)c1)S(=O)(=O)c1ccc(Cl)cc1	84.3*
Cc1ccc(S(=O)(=O)N(C)C[C@H]2Oc3ccc(NS(C)(=O)=O)cc3C(=O)N([C@H](C)CO)C[C@H]2C)cc1	-5.9
Cc1cccc(OCCCC(=O)Nc2ccccc2[N+](=O)[O-])c1C	37.7

Sorted by length of the SMILES (low to high): seven of the compounds above.
SMILES	NOMO-1 viab
CSc1ccc(S(=O)(=O)NCc2ccccn2)cc1	13.4
N#Cc1nc(COc2cccc(Cl)c2)oc1NCc1ccncc1	17.1
Cc1cccc(OCCCC(=O)Nc2ccccc2[N+](=O)[O-])c1C	37.7
N#C/C(=C\Nc1cccc(Cl)c1)S(=O)(=O)c1ccc(Cl)cc1	84.3*
CCOC(=O)c1cc(C#N)c(N2CCC(C(=O)OCC)CC2)nc1C(F)(F)F	11.1
C[C@H](CO)N1C[C@H](C)[C@H](CN(C)Cc2ccc(-c3ccccc3)cc2)Oc2ccc(NC(=O)Cn3cnnn3)cc2CC1=O	32.4
Cc1cc(C(=O)Nc2cccc3c2O[C@@H](CN(C)Cc2ccc(Cl)c(Cl)c2)[C@@H](C)CN([C@H](C)CO)C3=O)n(C)n1	92.3*

Continuation.
SMILES	NOMO-1 viab
O=c1c(Cc2ccccc2)c(O)c2ccccc2n1-c1ccccc1	-14.3
COc1ccc(S(=O)(=O)Nc2ccc3c(c2)C(=O)N([C@H](C)CO)C[C@H](C)[C@@H](CN(C)S(=O)(=O)c2cccs2)OCCCC[C@@H](C)O3)cc1	64.3
COc1ccc(NC(=O)Nc2ccc3c(c2)C(=O)N([C@H](C)CO)C[C@@H](C)[C@H](CN(C)Cc2ccncc2)O3)cc1	3.7
COc1ccc(S(=O)(=O)N(C)C[C@@H]2Oc3ccc(NC(=O)CCC(F)(F)F)cc3C(=O)N([C@@H](C)CO)C[C@H]2C)cc1	26.2
C[C@H]1CN([C@@H](C)CO)C(=O)c2cccc(NC(=O)c3ccncc3)c2O[C@@H]1CN(C)Cc1ccc(C(F)(F)F)cc1	13.0
COc1ccc(-c2c(C(F)(F)F)oc3cc(OCC(=O)Nc4ccc(C)cc4)ccc3c2=O)cc1OC	-4.4
Cc1ccc(S(=O)(=O)Nc2ccc3c(c2)CC(=O)N([C@@H](C)CO)C[C@H](C)[C@@H](CN(C)S(C)(=O)=O)O3)cc1	6.0
C[C@@H]1CN([C@H](C)CO)C(=O)c2cc(NC(=O)Nc3ccc4c(c3)OCO4)ccc2O[C@@H]1CN(C)Cc1ccc2c(c1)OCO2	28.3
C[C@H]1CN([C@@H](C)CO)C(=O)Cc2cc(NS(=O)(=O)c3cccs3)ccc2O[C@@H]1CN(C)C	32.0
CC(C)NC(=O)Nc1cccc2c1O[C@H](CN(C)C)[C@@H](C)CN([C@@H](C)CO)C2=O	-15.1
CC(C)NC(=O)Nc1ccc2c(c1)CC(=O)N([C@@H](C)CO)C[C@@H](C)[C@@H](CN(C)Cc1ccncc1)O2	-28.1
COc1ccc(NC(=O)Nc2cccc3c2O[C@H](CN(C)Cc2ccncc2)[C@@H](C)CN([C@H](C)CO)C3=O)cc1	-10.1
O=C(CSc1nc2ccc([N+](=O)[O-])cc2s1)Nc1cc(Cl)cc(Cl)c1	74.7
C[C@@H]1CN([C@H](C)CO)C(=O)c2cc(NC(=O)CCN3CCOCC3)ccc2O[C@H]1CN(C)Cc1ccc(Cl)c(Cl)c1	5.9
C[C@@H]1CN([C@H](C)CO)C(=O)Cc2cc(NS(C)(=O)=O)ccc2O[C@@H]1CN(C)S(=O)(=O)c1cn(C)cn1	21.1
CC(=O)c1cccc(NC(=O)C(C)N(c2ccc(C)cc2)S(C)(=O)=O)c1 (stereo unspecified)	14.6
CN(CC(=O)Nc1ccc(Br)cc1F)S(=O)(=O)c1ccc(F)cc1	-14.0
CC(=O)c1cccc(NC(=O)CN(C)S(=O)(=O)c2ccc(F)cc2)c1	6.7
COc1ccc(NC(=O)Nc2ccc3c(c2)C(=O)N([C@@H](C)CO)C[C@@H](C)[C@H](CN(C)Cc2ccc(Oc4ccccc4)cc2)O3)cc1	-4.2
CC(C)NC(=O)Nc1ccc2c(c1)CC(=O)N([C@H](C)CO)C[C@H](C)[C@H](CN(C)S(=O)(=O)c1cccs1)O2	-18.5
Cc1ncc2ccccc2c1C#N	2.8
C[C@H]1CN([C@@H](C)CO)C(=O)Cc2cc(N(C)C)ccc2O[C@@H]1CN(C)Cc1ccc(C(F)(F)F)cc1	8.2
C[C@H]1CN([C@@H](C)CO)C(=O)c2cc(NC(=O)Nc3ccc(C(F)(F)F)cc3)ccc2O[C@H]1CN(C)CC1CCCCC1	105.1*
Cc1ccc(S(=O)(=O)NC2c3cccc4cccc(c34)C2Sc2nnnn2-c2ccccc2)cc1 (stereo unspecified)	27.2
COc1ccc(NC(=O)Nc2ccc3c(c2)C(=O)N([C@H](C)CO)C[C@H](C)[C@@H](CN(C)S(=O)(=O)c2ccc(C)cc2)O3)cc1	26.9
C[C@@H]1CN([C@H](C)CO)C(=O)Cc2cc(NC(=O)Nc3ccc(F)cc3)ccc2O[C@H]1CN(C)Cc1ccccc1	21.1
C[C@@H]1CN([C@H](C)CO)C(=O)c2cccc(NC(=O)C3CCOCC3)c2O[C@@H]1CN(C)C(=O)Nc1cccc2ccccc12	-8.5
C[C@@H]1CN([C@H](C)CO)C(=O)c2cc(NC(=O)C3CC3)ccc2O[C@H]1CN(C)Cc1ccc2c(c1)OCO2	21.2
Cn1c(SCC(=O)Nc2ccc(Oc3ccccc3)cc2)nnc1-c1ccc([N+](=O)[O-])cc1	46.6
Cc1ccc(S(=O)(=O)N=S(Cc2ccccc2)Cc2ccccc2)cc1	29.1
Cc1ccc(NC(=O)CSc2n[nH]c(N)n2)cc1Cl	17.7
CCn1c(SCC(=O)c2ccccc2)nnc1-c1cc2cc(Br)ccc2o1	-1.9
COc1ccc(NC(=O)c2ccccc2NC(=O)COc2cccc(OC)c2)cc1	13.8
C[C@H](CO)N1C[C@H](C)[C@@H](CN(C)S(=O)(=O)c2ccc(F)cc2)Oc2c(NC(=O)C3CCOCC3)cccc2C1=O	-16.6
CS/C(N)=N/C(N)=Nc1ccc(Cl)cc1	34.2
Cc1ccc(C)c(NC(=O)CSc2n[nH]c(-c3ccccc3)n2)c1	14.6
Cc1noc(C)c1NC(=O)Nc1ccc2c(c1)CC(=O)N([C@@H](C)CO)C[C@@H](C)[C@@H](CN(C)Cc1ccc(-c3ccccc3)cc1)O2	37.6
O=C(c1ccccc1Cl)N1CCN(c2ccc([N+](=O)[O-])c(NCc3cccnc3)c2)CC1	22.9
COc1ccc([N+](=O)[O-])cc1NC(=O)CN(c1ccc(I)cc1)S(C)(=O)=O	19.0
CCOc1ccccc1-c1nnc(SCC(=O)Nc2ccc(I)cc2)o1	119.3*
CC(=O)n1c(O)c(/C=C2/C=c3ccc(C)cc3=NC2=O)sc1=N	-18.6
Cc1cc(N)n(-c2ccc(Oc3ccccc3)cc2S(=O)(=O)O)n1	-0.1
C[C@@H]1CN([C@@H](C)CO)C(=O)c2cc(NC(=O)Cc3cn(C)c4ccccc34)ccc2O[C@H]1CN(C)CC1CCCCC1	10.5
COc1ccc(C(=O)CSc2nnc(-c3ccco3)n2C)cc1	10.9
C[C@H]1CN([C@@H](C)CO)C(=O)c2cccc(NC(=O)Nc3ccc4c(c3)OCO4)c2O[C@H]1CN(C)C(=O)NC1CCCCC1	47.2
C[C@H]1CN([C@@H](C)CO)C(=O)c2cc(NC(=O)Nc3cccc4ccccc34)ccc2O[C@@H]1CN(C)Cc1ccccc1	22.7
CCNS(=O)(=O)c1ccc(NC(=O)c2cc(-c3ccncc3)nc3c(C)c(Cl)ccc23)cc1	49.0
Cc1cc(C)c(S(=O)(=O)N(C)CC(=O)Nc2cc(C(F)(F)F)ccc2Cl)c(C)c1	1.5

Some of the compounds tested (hit frequency here may not be typical).
